PABP FP inh: PABP-poly(A) binding inhibition. P11940. PABP-poly(A) RNA binding, fluorescence polarization. inhibition, % at 35 µM. actives 1% (n = 290,000);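 active means 50% or more with normal probe brightness, or confirmed in later tests; about a fifth of its hits are not listed in these tables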;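 further: calls also rest on retests at 20 µM and on dose response follow-up; controls were probe without protein and protein plus probe with vehicle; some compounds called inactive have numbers as strong as hits; many hits fall short of the cut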
Target sequence (P11940 whole entry, looked up): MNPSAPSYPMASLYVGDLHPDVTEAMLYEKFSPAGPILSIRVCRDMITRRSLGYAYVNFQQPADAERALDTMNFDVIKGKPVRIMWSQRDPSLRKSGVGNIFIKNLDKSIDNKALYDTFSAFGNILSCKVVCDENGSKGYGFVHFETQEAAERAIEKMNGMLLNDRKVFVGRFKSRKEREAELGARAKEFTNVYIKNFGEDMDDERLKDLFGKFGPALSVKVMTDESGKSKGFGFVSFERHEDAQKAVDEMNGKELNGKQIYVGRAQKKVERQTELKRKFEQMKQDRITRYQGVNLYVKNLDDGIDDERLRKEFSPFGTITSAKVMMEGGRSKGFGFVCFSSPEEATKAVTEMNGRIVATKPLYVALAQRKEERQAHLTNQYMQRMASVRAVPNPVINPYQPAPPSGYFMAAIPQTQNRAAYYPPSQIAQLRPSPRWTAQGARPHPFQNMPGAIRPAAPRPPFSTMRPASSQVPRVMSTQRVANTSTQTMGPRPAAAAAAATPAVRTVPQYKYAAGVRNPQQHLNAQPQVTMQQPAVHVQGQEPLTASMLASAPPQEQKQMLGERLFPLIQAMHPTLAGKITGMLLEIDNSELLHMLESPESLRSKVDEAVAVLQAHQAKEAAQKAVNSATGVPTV
eIF4H FP inh: inhibitors of RNA binding by human eIF4H; AID 2012; Q15056; eIF4H fluorescence polarization binding assay; actives 0.94% (n = 290,000); inhibition, % at 35 µM;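 active means 50% or more with normal probe brightness, or confirmed in later tests; about a fifth of its hits are not listed in these tables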;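 further: calls also rest on retests at 20 µM and on dose response follow-up; 0% = protein and probe with vehicle and 100% = probe without protein; strong numbers were not always called active; many hits fall short of the cut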
CSC inhib: cancer stem cell inhibition; cancer stem cell-like cells viability, luminescence; inhibition, % at 7.5 µM; actives 1.1% (n = 300,000);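 active means mean at 75% or more and at least half the replicates too; tested in HMLE shEcad cells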;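 further: 0% = median of negative and 100% = median of positive control wells; the first replicate is given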
Rce1 inhib: yeast Ras-converting enzyme inhibition; yeast membranes, quenched prenylated peptide cleavage fluorescence; Q03530; actives 0.27% (n = 290,000); calls only;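 active means fall in fluorescence gain of 50% or more versus controls, with final raw signal at or below 3038400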;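 further: plate controls were neutral control wells for no effect and wells lacking membranes for full effect; tested at 10 µM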
MT1-MMP act inh: blocks activation of human MT1-MMP | actives 0.061% (n = 360,000) | HT1080 RFP-PRO-GFP cells, GFP/RFP ratio fluorescence, overnight; percent of plate control window, DMSO zero | GFP/RFP ratio change, % at 20 µM | AID 651647;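 active means GFP/RFP ratio change of at least 30% with cell ATP level not reduced by more than half and red fluorescence within 50% of control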; further: strong numbers were not always called active
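Assay system: HT1080 RFP-PRO-GFP cells. Benchmarks: DMSO vehicle wells and RFP-L50D-GFP reporter cell wells. Times: overnight cell settling, then overnight compound exposure, 37 °C, 5% CO2. Compound: 20 µM single dose, 1% DMSO. Read-out basis: GFP/RFP fluorescence ratio.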
Yeast UUG start: alters start codon recognition fidelity in yeast. S. cerevisiae UUG-firefly luciferase reporter, luminescence/redox ratio. activity score, % at 18.7 µM. actives 0.13% (n = 350,000). AID 602363;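 active means replicate mean at a twofold rise or more, about +100% in these data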;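 further: firefly luciferase made from a UUG start codon reports start codon fidelity; reporter light over untreated wells divided by growth signal over untreated wells; some hits fall short of that in this replicate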
Env fusion inh: blocks HIV Env-driven cell-cell fusion. actives 1.1% (n = 360,000). HeLa-JRFL Env/CEM21 cell fusion, luciferase. inhibition, % at 12.3 µM;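 active means mean replicate inhibition score of at least 50 and every replicate individually at or above 50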;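 further: 0% = plate neutral controls and 100% = maraviroc near 300 nM; one replicate is shown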
eIF4H FP inh retest: also measured in eIF4H FP inh; calls as there; inhibition, %; compound at 20 µM; confirmation average;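 mean of two retest wells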
PABP FP inh retest: further read-out of PABP FP inh, marked with its call; inhibition, %; compound at 20 µM; confirmation repeats;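 mean of two retest wells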
MT1-MMP act inh RFP: also measured in MT1-MMP act inh; calls as there; RFP signal change, %; measured here: RFP expression control read;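 0 = vehicle wells; hits needed this value within 50% of zero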
An asterisk follows results filed as active; i = inactive; · = no result given; & = joins results of further samples; [ ] = another dose, or the depositor's remark.

SMILES	PABP FP inh	eIF4H FP inh	CSC inhib	Rce1 inhib	MT1-MMP act inh	MT1-MMP act inh RFP	Yeast UUG start	Env fusion inh	others
CCc1nc2ccc(C(=O)Nc3nnc(C)s3)cc2nc1CC	-2	3	-8	i	0	2	·	5
OCC1(Cc2cccc(Cl)c2)CCCN(Cc2ccc3cc(F)ccc3n2)C1 (configuration not stated)	-2	-8	-3	i	-10	-6	-19	26
CSc1nc(N(C)CCO)c2sc3nc(-c4ccco4)c4c(c3c2n1)CCC4	67*	79*	16	i	21	-4	4	·	eIF4H FP inh retest=95*;PABP FP inh retest=94*
Cc1cccc(NS(=O)(=O)c2cccc(C(=O)NCc3ccccc3CN3CCOCC3)c2)c1	·	·	-12	·	-2	-9	·	7
Cc1cccc(NC(=O)CN2CCOCC2)c1C	-7	-10	0	i	-3	-1	0	-28
O=C(CSc1nnc(NC(=O)c2cccc(F)c2)s1)NC1CC1	-1	3	-1	·	0	-1	-20	-4
CC(C)C[C@H](N)c1nnc(S(=O)(=O)Cc2cccc(F)c2)o1	7	-2	2	i	6	0	-29	·
CC(OC(=O)C1COc2ccccc2O1)C(=O)N(C)c1ccccc1 (configuration not stated)	11	-7	0	i	6	5	·	6
Cc1cc(OCC(=O)Nc2cc(C(C)(C)C)on2)ccc1[N+](=O)[O-]	-10	-1	-6	i	3	3	-13	-7
CCC(C)NC(=O)C1CCN(C(=O)N(C)C)CC1 (configuration not stated)	3	-10	8	·	4	4	-13	·
CC(C)=C1C(=O)NN(c2cccc(Cl)c2)C1=O	0	-7	11	i	-3	0	2	·
Cc1nccn1CC(=O)O	8	-2	-2	i	·	·	·	20
COc1ccc(C(=O)CSc2nnc(Cc3ccccc3)o2)cc1	-10	-8	0	i	2	0	-9	·
Cc1cc(NC(=O)c2cc3cc([N+](=O)[O-])ccc3s2)no1	·	·	·	·	3	-1	-31	-12
CCCCOCCCNC(=O)N[C@H](C(=O)O)C(C)CC (some centres not stated)	6	6	-5	i	2	8	-9	0
CCOc1ccc(-c2nc(N)nc(C)c2-c2ccc(OC)c(OC)c2)c(O)c1	5	4	1	·	0	2	-18	·
O=C(NC1CCCCC1)C1CC(=O)N(CCc2ccccc2)C1 (configuration not stated)	7	-2	-12	i	9	4	-5	·
COc1ccc(OC)c2[nH]c(C(=O)O)cc12	-8	1	-5	i	8	-2	-15	·
CC(C)CCn1c(SCC(=O)Nc2ccccc2C(F)(F)F)nc2nccnc2c1=O	·	·	3	i	0	1	8	2
CCCCS/C(N)=N/N=C/c1cc(C)ccc1O	-7	-8	11	i	15	7	·	·
O=C(O)c1ccccc1C(=O)c1cccs1	-1	-12	-16	i	-3	1	0	·
O=C(Cc1ccccc1)Nc1cc(Cl)ccc1Sc1ccccc1	3	3	70	i	-7	-6	-22	-26
Cc1cc(NC(=O)CSc2nnc(Nc3ccccc3F)s2)no1	9	-5	-9	i	-1	-1	·	-41
Cc1cc(=O)oc2cc(NC(=O)c3ccccc3C(=O)O)ccc12	7	-2	-8	i	-1	1	-14	3
Cc1[nH]c(=S)sc1Cc1ccc(F)cc1	-7	-5	-8	i	-5	3	-35	8
CCc1cccc(NC(=O)CCNS(=O)(=O)c2ccc3[nH]c(=O)oc3c2)c1	4	8	-7	i	2	-2	-4	6
CC1=C(SCc2ccccc2)C(=O)c2ccccc2C1=O	·	·	·	·	-30	1	-14	-32
Cc1c(NS(=O)(=O)CC23CCC(CC2=O)C3(C)C)c(=O)n(-c2ccccc2)n1C (configuration not stated)	-11	1	-13	·	0	0	-7	-33
CCN1CCN(c2ccc(S(=O)(=O)N3CCOCC3)cc2NC(=O)c2ccccc2SC)CC1	·	·	-3	i	1	4	-5	4
O=C(CCc1ccccc1)Nc1cc2c3c(c1)CC(=O)N3CCC2	·	·	-8	i	3	1	-2	0
Cc1ccc(NCCC(=O)c2cccs2)cc1C	7	-6	5	i	-6	2	-15	-34
Cc1ccccc1C(=O)NC(C)C1CC2CCC1C2 (configuration not stated)	-5	-6	-5	i	1	3	-9	1
COc1cc(/C=N/N2CCN(Cc3ccc(Cl)cc3)CC2)cc(Br)c1O	-9	-13	18	i	3	-10	9	5
Cc1cc(N2CCN(c3ccc(F)cc3)CC2)n2ncnc2n1	-8	4	27	i	8	-2	-14	3
Nc1nonc1-c1noc(COc2ccccc2Cl)n1	8	-3	-8	i	3	13	-7	-333
CCc1ccc(S(=O)(=O)Nc2ccccn2)cc1	8	14	-10	·	-2	0	-2	7
O=C(C1CCN(S(=O)(=O)c2cccc3nsnc23)CC1)N1CCCCC1	4	-12	-5	i	0	3	-3	1
COc1ccc(NC(=O)C(=S)NC2CCCCC2)cc1	2	-12	4	i	4	-2	-9	-104
C(=C\c1ccccc1)/CNn1cnnc1	-3	-3	1	i	2	1	-16	5
COc1ccc(S(=O)(=O)N2CCOCC2)cc1NC(=O)c1cccc2c(=O)c(C)c(-c3ccccc3)oc12	-6	-3	11	i	-5	-12	-13	-18

Part of the list above in order of molecular weight, high to low:
SMILES	PABP FP inh	eIF4H FP inh	CSC inhib	Rce1 inhib	MT1-MMP act inh	MT1-MMP act inh RFP	Yeast UUG start	Env fusion inh	others
CCN1CCN(c2ccc(S(=O)(=O)N3CCOCC3)cc2NC(=O)c2ccccc2SC)CC1	·	·	-3	i	1	4	-5	4
O=C(C1CCN(S(=O)(=O)c2cccc3nsnc23)CC1)N1CCCCC1	4	-12	-5	i	0	3	-3	1
Nc1nonc1-c1noc(COc2ccccc2Cl)n1	8	-3	-8	i	3	13	-7	-333
COc1ccc(NC(=O)C(=S)NC2CCCCC2)cc1	2	-12	4	i	4	-2	-9	-104
O=C(O)c1ccccc1C(=O)c1cccs1	-1	-12	-16	i	-3	1	0	·
C(=C\c1ccccc1)/CNn1cnnc1	-3	-3	1	i	2	1	-16	5

Going on with the list.
SMILES	PABP FP inh	eIF4H FP inh	CSC inhib	Rce1 inhib	MT1-MMP act inh	MT1-MMP act inh RFP	Yeast UUG start	Env fusion inh	others
COc1ccc(C(CCN2CCCCC2)c2c(OC)cc(OC)c3c(-c4ccccc4)cc(=O)oc23)cc1 (configuration not stated)	-16	0	-8	i	-1	-2	4	-19
Cc1ccc(C)c(N2N=C(C(=O)Nc3nccs3)CCC2=O)c1	25	-3	5	i	0	0	-11	1
CN(CCOc1ccc(Cl)cc1)C(=O)C1=CC=CN2CCS(=O)(=O)N=C12	·	·	1	·	-2	0	-11	-1
COc1ccc(S(=O)(=O)N2CCC(C(=O)NC3CC3)CC2)cc1OC	3	-5	-3	i	-2	5	-5	0
CC(NC(=O)CCc1ccc(S(=O)(=O)NC2CCCCC2)cc1)c1ccccc1 (configuration not stated)	-5	3	-13	i	-4	-5	7	·
O=C(NC(=S)Nc1cccc(F)c1)c1cccc([N+](=O)[O-])c1	1	5	2	i	-1	0	·	-3
Cn1c(SCc2ccccc2Cl)nc2ccccc21	0	-7	3	i	-2	1	·	·
COc1cc2c(cc1OC)C(C1C(=O)CCCC1=O)N(C(=O)CCl)CC2 (configuration not stated)	12	14	-6	i	7	7	-1	9
O=C(O)c1ccccc1-c1ccccc1C(=O)Nc1ccccc1	-5	0	-1	i	-4	4	-12	·
Cc1nc(Cl)c(S(N)(=O)=O)c(C)c1Cl	14	5	·	i	0	0	·	6
CCCc1cc(=O)[nH]c(SC(CC)C(=O)Nc2ccccc2C#N)n1 (configuration not stated)	2	-1	-1	i	5	1	-19	·
CC(C)CN1CCN(Cc2ccc(CN3CCCCC3)s2)CC1CCO (configuration not stated)	10*	63*	50	·	1	3	-3	9	eIF4H FP inh retest=90*;PABP FP inh retest=59*
Fc1ccc(CSc2ccc(-c3cccs3)nn2)cc1	-11	-5	11	i	5	5	-12	-32
Cc1cc(C(=O)COC(=O)CCc2nc3ccccc3s2)c(C)n1C	-6	-3	·	i	2	6	6	-20
C[C@H](CO)N1C[C@H](C)[C@@H](CN(C)CC2CCCCC2)Oc2ccc(NC(=O)CCN3CCOCC3)cc2C1=O	·	·	-13	·	11	10	7&-1	-5[16.7 µM]
CC(=O)Nc1ccc(S(=O)(=O)N2CCC(N3CCCCC3)CC2)cc1	7	-1	16	i	0	1	-16	3
O=C(NCc1cccc(Cl)c1)c1ccc(-n2cncn2)c2ccoc12	·	·	·	·	3	0	4	-4
COc1ccc(/C=C2\SC(=S)N(CCCC(=O)Nc3ccc(C(=O)O)cc3)C2=O)cc1OC	-9	2	20	i	-12	-1	-5	0
O=C(CSc1ncnc2c1oc1ccccc12)Nc1nccs1	0	4	-9	i	2	7	-12	0
O=C(NCc1ccco1)C1CC(c2ccc(Cl)cc2)=NO1 (configuration not stated)	10	1	-10	i	-2	3	-6	-20
COC(=O)c1cc(NC(=O)CSc2ncn[nH]2)ccc1Cl	12	-8	·	i	2	2	-11	-7
CC1CC(C)CN(C(=O)CSc2ncnc3sccc23)C1 (configuration not stated)	·	·	-5	·	-3	-3	-22	-6
CCc1ccc(-c2cc(C)no2)cc1S(=O)(=O)Nc1cccc(CN2CCCC2)c1	10	-2	-3	i	2	8	30	-7
O=C(NCc1ccco1)c1ccc(CS(=O)Cc2cccc(Cl)c2)o1 (configuration not stated)	7	-11	23	i	·	·	-9	1
CN(C)c1ccc(CNc2ncn[nH]2)cc1	0	-4	47	i	1	4	·	-6
COC(=O)Cc1c(C)c2ccc(OCC(=O)N(C)C)cc2oc1=O	-2	4	-4	i	0	5	-16	9
CC(C)CN(C(=O)c1cccc(Cl)c1)c1c(N)n(CC(C)C)c(=O)[nH]c1=O	-3	0	0	·	2	5	-15	-16
O=C(COC(=O)c1ccccc1)Nc1ccccc1N1CCOCC1	-11	1	-10	i	-4	0	-13	·
O=C(Nc1ccccc1Br)C1CC(=O)N(c2ccc3c4c(cccc24)CC3)C1 (configuration not stated)	2	3	41	i	0	-11	·	-9
Cc1cc2cc(CCNC(=O)c3ccc(S(=O)(=O)N4CCOCC4)cc3)c(=O)[nH]c2cc1C	-5	-7	-20	i	6	-3	-6	·
CCCS(=O)(=O)N1CCCC(C(=O)N2CCN(C(=O)OCC)CC2)C1 (configuration not stated)	-11	-6	-4	i	-3	2	-14	·

In the list so far, these have bromine.
SMILES	PABP FP inh	eIF4H FP inh	CSC inhib	Rce1 inhib	MT1-MMP act inh	MT1-MMP act inh RFP	Yeast UUG start	Env fusion inh	others
COc1cc(/C=N/N2CCN(Cc3ccc(Cl)cc3)CC2)cc(Br)c1O	-9	-13	18	i	3	-10	9	5
O=C(Nc1ccccc1Br)C1CC(=O)N(c2ccc3c4c(cccc24)CC3)C1 (configuration not stated)	2	3	41	i	0	-11	·	-9

Quoted at random: six entries already listed.
SMILES	PABP FP inh	eIF4H FP inh	CSC inhib	Rce1 inhib	MT1-MMP act inh	MT1-MMP act inh RFP	Yeast UUG start	Env fusion inh	others
COC(=O)c1cc(NC(=O)CSc2ncn[nH]2)ccc1Cl	12	-8	·	i	2	2	-11	-7
O=C(COC(=O)c1ccccc1)Nc1ccccc1N1CCOCC1	-11	1	-10	i	-4	0	-13	·
CN(C)c1ccc(CNc2ncn[nH]2)cc1	0	-4	47	i	1	4	·	-6
CCc1ccc(-c2cc(C)no2)cc1S(=O)(=O)Nc1cccc(CN2CCCC2)c1	10	-2	-3	i	2	8	30	-7
COC(=O)Cc1c(C)c2ccc(OCC(=O)N(C)C)cc2oc1=O	-2	4	-4	i	0	5	-16	9
O=C(NCc1ccco1)c1ccc(CS(=O)Cc2cccc(Cl)c2)o1 (configuration not stated)	7	-11	23	i	·	·	-9	1
